Assay outcomes deposited in PubChem by National Center for Advancing Translational Sciences (NCATS).
CtBP-E1A blk – inhibitors of CtBP/E1A interaction. AlphaScreen GST-E1A/His-CtBP binding, 1536-well; hits give low values; control for the full effect not named in the record. activity change, % (no concentration beside the values). 340,000 compounds, 0.49% hits; in the data active means activity change below about -65%; inconclusive means about -30% to -65%; inactive means above about -30%; further: on the % scale 0 is the no-effect control and ±100 the full control effect
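AlphaScreen with 125 nM GST-E1A and 125 nM His-CtBP (5X stocks) in Tris pH 8.0, 300 mM NaCl, BSA, Tween 20, TCEP. Compounds preincubated 2 h at 37 deg C, then glutathione donor/nickel acceptor beads added for 1 h at 37 deg C in dark.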
Sfp PPTase inh – inhibitors of Bacillus subtilis Sfp phosphopantetheinyl transferase; Q9F4F7; Biochemical Sfp PPTase activity, qHTS; Potency, µM, for the others: max response, negative = inhibition, actives largely listed as inhibitors; 310,000 compounds, 3.5% hits; AID 1490; active means well fitted inhibition curve with a large enough effect; inconclusive means small, poorly fitted or top-dose-only effect, or another doubt; inactive means no such curve, though single readings can be large or run the other way;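 further: the enzyme is Sfp with the accession as filed and its product quenches rhodamine fluorescence; potency means the concentration at half of the fitted maximal effect; 0% = enzyme reaction without inhibitor and -100% = no enzyme wells; top concentration of the series not given in the record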
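Fluorescence-quenching assay: 15 nM Sfp-PPTase preincubated 15 min at room temperature with compound, then 5 uM rhodamine-CoA and 12.5 uM BHQ-2-labelled YbbR peptide added. Fluorescence (ex 525/em 598 nm) read at start and after 30 min; difference gives rate.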
ClpP mod – qHTS Assay for Activators of ClpP | 340,000 compounds, 1.9% hits | ATP-dependent Clp protease proteolytic subunit (Bacillus subtilis (strain 168)), P80244 | Potency, µM (series often up to 57.5 µM), for inactives: at the top dose activity change, negative = active | purified B. subtilis ClpP, FRET peptide cleavage, 20 min; active = well fitted falling curve with a large enough effect; inconclusive = small, poorly fitted or top-dose-only effect; inactive = no such curve, though single readings can be large or run the other way; further: potency means the concentration at half of the fitted maximal effect; the source files actives as falling curves though it sought activators and does not explain the sign; nearly all actives have a fitted effect of over 65% in size; many hits overshoot -100%
Target sequence (P80244 whole entry, looked up): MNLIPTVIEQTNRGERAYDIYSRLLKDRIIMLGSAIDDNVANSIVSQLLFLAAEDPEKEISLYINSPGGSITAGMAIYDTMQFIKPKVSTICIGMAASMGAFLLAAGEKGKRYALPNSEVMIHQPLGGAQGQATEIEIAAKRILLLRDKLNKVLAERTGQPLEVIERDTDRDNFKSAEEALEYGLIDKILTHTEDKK
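Purified B. subtilis ClpP, 10 microg/mL final in Tris/HCl pH8 with KCl, BSA, glycerol and Tween-20, cleaved an Abz/nitrotyrosine-quenched decapeptide. Fluorescence (ex 320, em 430) was read at 0 and 20 min at room temperature. Delta was normalized to 5.8 microM ADEP and DMSO/no-enzyme controls.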
TRPV1 PAM – potentiators of human vanilloid receptor 1 (TRPV1) | Q8NER1 | TRPV1-expressing cells, Fluo-8 calcium influx, capsaicin EC20 potentiation; host cell line not named in the record; control for the full effect not named in the record | potentiation, % at 8.33 µM | 320,000 compounds, 0.02% hits; active means potentiation above 80%; inconclusive means 30% to 80%; inactive means below 30%; further: 0% is about no effect
Target sequence (Q8NER1 whole entry, looked up): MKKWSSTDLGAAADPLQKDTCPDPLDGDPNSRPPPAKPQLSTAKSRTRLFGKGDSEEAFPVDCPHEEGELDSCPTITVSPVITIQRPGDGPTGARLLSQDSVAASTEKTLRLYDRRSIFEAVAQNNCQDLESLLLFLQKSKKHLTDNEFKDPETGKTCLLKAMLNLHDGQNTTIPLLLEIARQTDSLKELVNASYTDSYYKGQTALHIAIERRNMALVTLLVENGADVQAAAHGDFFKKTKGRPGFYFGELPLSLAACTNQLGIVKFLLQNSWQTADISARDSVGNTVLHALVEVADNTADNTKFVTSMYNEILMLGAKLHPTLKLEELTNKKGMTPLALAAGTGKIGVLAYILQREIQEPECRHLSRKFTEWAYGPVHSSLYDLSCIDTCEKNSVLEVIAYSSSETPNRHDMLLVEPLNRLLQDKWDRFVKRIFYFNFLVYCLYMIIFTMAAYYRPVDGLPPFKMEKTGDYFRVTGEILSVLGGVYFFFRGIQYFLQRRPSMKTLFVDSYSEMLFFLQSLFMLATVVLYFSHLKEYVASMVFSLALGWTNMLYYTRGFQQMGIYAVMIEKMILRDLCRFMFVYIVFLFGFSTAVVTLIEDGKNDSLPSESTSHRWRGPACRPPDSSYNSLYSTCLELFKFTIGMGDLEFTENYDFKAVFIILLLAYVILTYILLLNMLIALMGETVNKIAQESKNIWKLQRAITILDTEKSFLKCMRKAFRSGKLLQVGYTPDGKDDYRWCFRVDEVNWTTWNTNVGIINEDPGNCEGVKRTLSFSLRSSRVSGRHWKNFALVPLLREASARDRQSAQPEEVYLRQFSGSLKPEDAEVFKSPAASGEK
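Cells expressing TRPV1 were dye-loaded with Fluo-8 and read kinetically: 10 s baseline, 3 min after compound (agonist portion), then 2 min after EC20 capsaicin (allosteric enhancer portion). Calcium-bound dye fluorescence at 480/520 nm.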
Menin MLL FP FL – inhibitors of human menin-MLL interaction, wild-type MLL peptide; Fluorescence polarization, fluorescein-MLL peptide displacement from menin; FP activity change, % at 61.4 µM; 290,000 tested, under 10 active; inconclusive = falling polarisation curve, or a change in total fluorescence; inactive = total fluorescence flat and polarisation flat or rising; no compound was filed as active; the % refers to the polarisation; negative = inhibition;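 further: % of control where 0% means no effect; inhibitors lower the polarisation; unlabelled MLL peptide was the positive control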
gsp agonist – gsp mutant agonism; gsp mutant cells, cAMP HTRF, 30 min; control for the full effect not named in the record; Potency, µM (top dose mostly 76.9 µM), for the others: top-dose activation (cAMP increase), most hits filed as activators; 340,000 compounds, 0.13% hits; AID 624287; active = well fitted activation curve with a large enough effect; inconclusive = small, poorly fitted or top-dose-only effect, or another doubt; inactive = no such curve, though single readings can be large or run the other way; cell line not stated here;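 further: phosphodiesterase inhibitor Ro 20-1724 added with compounds to block cAMP breakdown; potency means the concentration at half of the fitted maximal effect; nearly all actives have a fitted effect of over 60% in size; about a fifth of the inactives were tested at one dose only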
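Cells stably selected in G418 were plated at 2000/well, grown 16-24 hr, then given compounds in DMSO with the PDE inhibitor […] (300 uM solution added) for 30 min at 37C; cAMP was read by HTRF.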
gsp antag – antagonists of gsp mutant (McCune-Albright syndrome) | 340,000 compounds, 0.4% hits | Potency, µM (top dose mostly 76.9 µM), for the others: at the highest dose activity change, negative = inhibition, most hits filed as inhibitors | gsp-mutant cells, cAMP HTRF, 30 min; control for the full effect not named in the record; active = falling curve of any shape with a large fitted effect; inconclusive = falling curve, mostly with a smaller effect; inactive = flat or rising curve; cell line not stated here;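 further: intracellular cAMP measured with PDE inhibitor Ro 20-1724 present during compound exposure; potency means the concentration at half of the fitted maximal effect; on the % scale 0 is the no-effect control and ±100 the full control effect; nearly all actives have a fitted effect of over 65% in size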
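HTRF cAMP measurement after 30 min RT detection following 30 min, 37C compound treatment alongside […] (added as 300 uM solution) in G418-selected cells seeded at 2000/well and grown 16–24 h.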
* = called active by the depositor; i = inactive; ? = inconclusive; · = not tested or not shown; [ ] = another dose, or the depositor's remark.

Keys: A = CtBP-E1A blk; B = Sfp PPTase inh; C = ClpP mod; D = TRPV1 PAM; E = Menin MLL FP FL; F = gsp agonist; G = gsp antag
> COCCNC(=O)c1ccc(N2CC3CC(C2)c2cccc(=O)n2C3)c(NC(=O)c2ccc(Br)o2)c1 (stereo not given)
  A: 0 | B: 0% | C: -1.1% | D: 0 | E: -8.6 | F: -2% | G: 9%

> C[C@H](NC(=O)c1nc[nH]c1C(=O)NCC(=O)OCc1ccccc1)C(=O)OCc1ccccc1
  A: -5 | B: -6% | C: -1.5% | D: 13 | E: -6.1 | F: 21% | G: -21%

> CCOC(=O)N/N=C/c1c(F)c(F)c(F)c(F)c1F
  A: 8 | B: -2% | C: · | D: -4 | E: -1.1 | F: 8%[15.4 µM] | G: 8%

> Cc1cccc(NC(=O)c2ccccc2NC(=O)Cc2ccccc2)c1C
  A: 5 | B: 8% | C: 3.7% | D: -5 | E: 4.3 | F: 0% | G: 0%

> CCOC(=O)Cn1c(C(F)(F)F)nc2nc(Cl)c(Cl)nc21
  A: 3 | B: · | C: ? | D: · | E: · | F: 11% | G: -14%

> CC(=O)CCC1C2C(O)C(C(C)C)C(OC(=O)/C=C/c3ccccc3)CC12C (stereo not given)
  A: 0 | B: -12% | C: -2.9% | D: -12 | E: 4.1 | F: -47%[inhibitor] | G: -18%

> Cc1ccc(C(=O)N(CCN2CCCCC2)CC2CCCN(C3CCCC3)C2)s1 (stereo not given)
  A: 2 | B: 12% | C: -12% | D: 2 | E: -5.4 | F: -47%[inhibitor] | G: 7%

> CC1(C)CC(OC(=O)c2ccco2)CC(C)(C)N1O
  A: -7 | B: 13% | C: 1.7% | D: 1 | E: -7.0 | F: -22% | G: 4%

> CC(CCc1ccccc1)NC(=O)CCNS(=O)(=O)c1ccccc1C(F)(F)F (stereo not given)
  A: · | B: · | C: -0.4% | D: -5 | E: · | F: ? | G: 0%

> O=C(Cc1cccc(Cl)c1)Nc1ccc(Br)cc1
  A: -14 | B: 6% | C: · | D: 17 | E: 1.6 | F: 0%[15.4 µM] | G: 11%

> CCOC(=O)CN1CC23C=CC(O2)C(C(=O)NCc2cccs2)C3C1=O (stereo not given)
  A: 2 | B: 8% | C: 2.4% | D: 5 | E: 2.4 | F: 6% | G: 7%

> O=C(Cn1cnc2c(OCc3ccccc3)ncnc21)NCc1ccc2[nH]ccc2c1
  A: -12 | B: · | C: -1.1% | D: · | E: · | F: · | G: 2%

> COc1ccc(NC(=O)Cn2c(=O)sc3ccccc32)cc1
  A: -1 | B: -18% | C: -1.9% | D: 5 | E: -2.3 | F: 7% | G: -4%

> COc1ccc(C(=O)NCCSc2ccccc2)cc1OC
  A: 5 | B: 16% | C: · | D: 15 | E: -9.3 | F: -9%[15.4 µM] | G: -17%

> CC1CN=C(c2ccccc2)O1 (stereo not given)
  A: 4 | B: · | C: · | D: · | E: · | F: ? | G: 16%

> CCOC(=O)CSc1nnc(CNC(=O)c2ccc(OC)cc2)n1C1CCCCC1
  A: -1 | B: 9% | C: -0.3% | D: 1 | E: 3.2 | F: -5% | G: 6%

> Cc1cc(/C=C2/NC(=O)NC2=O)c(C)n1-c1ccncc1
  A: -28 | B: 17% | C: · | D: 1 | E: -1.6 | F: -3%[15.4 µM] | G: -10%

> Cc1cccc(Cn2nnc3ccccc32)c1O
  A: 2 | B: · | C: 0.3% | D: 17 | E: · | F: 2% | G: 6%

> O=C(Nc1ccccc1C(=O)NCC1CCCO1)c1ccc(Cl)cc1Cl (stereo not given)
  A: 5 | B: 8% | C: -0.3% | D: -4 | E: 6.4 | F: -3% | G: -8%

> O=C(COC(=O)c1ccc(N2CCCC2=O)cc1)c1ccccc1
  A: 0 | B: 13% | C: · | D: 5 | E: 6.5 | F: -4%[15.4 µM] | G: -15%

> COc1ccc(OC)c(-n2c(=S)[nH]c3c(sc(=S)n3-c3ccccc3)c2=O)c1
  A: 11 | B: -3% | C: · | D: 1 | E: -0.3 | F: 27% | G: -9%

> COc1cc2c(cc1OC)C(COc1ccc(F)cc1)N(C(=O)c1ccco1)CC2 (stereo not given)
  A: -14 | B: ? | C: -0.4% | D: -22 | E: 2.3 | F: 3% | G: 5%

> O=C(Nc1ccccc1)N1CCN(Cc2ccc3c(c2)OCO3)CC1
  A: 5 | B: -1% | C: 1.5% | D: -36 | E: 1.9 | F: -7% | G: 7%

> O=C1OCCN1C(=O)[C@H]1[C@H](c2ccc(Cl)cc2)C(c2ccc(F)cc2)=NN1c1ccc(Br)cc1
  A: 7 | B: 3% | C: 5.7% | D: · | E: -1.7 | F: · | G: -4%

> CCc1nc2nc(C)c(NS(=O)(=O)c3ccc(C)c(C)c3)c(=O)n2[nH]1
  A: 5 | B: 9% | C: · | D: 7 | E: -0.2 | F: 2% | G: 15%

Next records follow:
Keys: A = CtBP-E1A blk; B = Sfp PPTase inh; C = ClpP mod; D = TRPV1 PAM; E = Menin MLL FP FL; F = gsp agonist; G = gsp antag
> CC(Oc1ncnc2ccccc12)C(=O)Nc1cccc(S(=O)(=O)N2CCOCC2)c1 (stereo not given)
  A: -2 | B: -10% | C: 1.0% | D: 6 | E: 0.8 | F: ? | G: 16%

> CCC(=O)Nc1ccc(S(=O)(=O)Nc2cccc(C)c2)cc1OC
  A: 5 | B: -5% | C: -0.8% | D: ? | E: 0.5 | F: 2% | G: 10%

> Fc1cccc(-n2c(-c3ccco3)nc3nc4ccccc4nc32)c1
  A: 7 | B: 16% | C: ? | D: -10 | E: 5.0 | F: 7% | G: -16%

> COc1ccc(/C(O)=C2\C(=O)C(=O)N(CCN(C)C)C2c2cc(OC)c(OC)c(OC)c2)c(C)c1 (stereo not given)
  A: 22 | B: 13% | C: 1.0% | D: -9 | E: 2.3 | F: 0% | G: 0%

> Cc1ccoc1C(=O)N1CCCCC1C(=O)O (stereo not given)
  A: · | B: 8% | C: · | D: 13 | E: -0.1 | F: 11%[15.4 µM] | G: 8%

> CCN(C(=O)COC(=O)c1ccc(OC)c(S(=O)(=O)N2CCCc3ccccc32)c1)C1CCS(=O)(=O)C1 (stereo not given)
  A: 0 | B: 7% | C: 0.8% | D: -1 | E: 2.7 | F: -24% | G: -13%

> COc1ccc(CCNC(=O)CSc2nc(O)c(C(C)C)c(=O)[nH]2)cc1OC
  A: 7 | B: 9% | C: 0.3% | D: 5 | E: 0.5 | F: -3% | G: 12%

> COc1ccc(-c2cc(C)no2)cc1S(=O)(=O)NCCCN1CCCCCC1
  A: -14 | B: -9% | C: -13% | D: 0 | E: -2.1 | F: ? | G: 4%

> O=S(=O)(Oc1ccc(C(=S)N2CCOCC2)cc1)c1ccc(Cl)cc1
  A: -4 | B: -13% | C: -0.8% | D: -20 | E: -0.9 | F: 19%[15.4 µM] | G: -1%

> CCCC1=NN(C(=O)Cc2ccc([N+](=O)[O-])cc2)C(O)(C(F)(F)F)C1 (stereo not given)
  A: 1 | B: 14% | C: · | D: -11 | E: -1.5 | F: 18%[15.4 µM] | G: -2%

> COCOCCn1cc(CN2CCS(=O)(=O)N(Cc3ccc(-c4ccncc4)cc3)C(CC(C)C)C2=O)nn1 (stereo not given)
  A: -2 | B: · | C: -9.5% | D: · | E: · | F: -21% | G: ·

> COc1cccc(NC(=O)CN2C(=O)CSc3ccc(S(=O)(=O)N4CCCCC4)cc32)c1
  A: · | B: 22% | C: 0.9% | D: -3 | E: 1.1 | F: -17% | G: -7%

> CC(C)Cc1oc(C(=O)O)cc1CN
  A: 6 | B: -4% | C: -2.4% | D: -10 | E: -0.1 | F: -76% | G: 7%

> Cc1cc(SCC(=O)N2CCN(C(=O)c3ccco3)CC2)c(C)cc1Br
  A: 0 | B: · | C: 0.0% | D: 21 | E: · | F: -7% | G: -9%

> CCC(=O)Nc1cccc(SC)c1
  A: 2 | B: 1% | C: -0.2% | D: -7 | E: 30[activator] | F: -8% | G: 0%

> COc1ccc(Nc2ccc(Cl)nn2)cc1
  A: 6 | B: 13% | C: -1.2% | D: -1 | E: 7.5 | F: -16%[15.4 µM] | G: 9%

> COc1ccccc1-c1cc(C(=O)N/N=C/C=C/c2ccccc2[N+](=O)[O-])c2ccccc2n1
  A: ? | B: 11% | C: 0.2% | D: -3 | E: 0.5 | F: -9% | G: -9%

> CSc1ccccc1NC(=O)c1cc(-c2ccco2)on1
  A: 1 | B: ? | C: · | D: 7 | E: 3.2 | F: 0%[15.4 µM] | G: 0%

> O=C(CSc1nncn1-c1ccccc1)Nc1cccc(S(=O)(=O)N2CCCCC2)c1
  A: · | B: -12% | C: · | D: -10 | E: -15 | F: · | G: ·

> CC(C)(C)C1COc2ccccc2N1C(=O)c1ccccc1Cl (stereo not given)
  A: 4 | B: 9% | C: 1.5% | D: 1 | E: -1.8 | F: -33% | G: -5%

> COc1ccc(CCNC(=O)c2cc(=O)c3cc(C)ccc3o2)cc1OC
  A: · | B: 5% | C: 0.0% | D: 7 | E: 2.8 | F: 3% | G: ?

> Cc1cccc(-c2nc(C)cc(=O)[nH]2)c1
  A: -11 | B: 8% | C: · | D: 20 | E: 3.3 | F: 19%[15.4 µM] | G: 6%

> COc1ccc(-c2nn(-c3ccccc3)cc2CO)cc1
  A: 4 | B: 6% | C: -14% | D: 13 | E: 3.9 | F: 7% | G: -21%

> O=C(O)c1cc([N+](=O)[O-])ccc1NCc1ccccn1
  A: -1 | B: · | C: 1.4% | D: -24 | E: · | F: · | G: -1%

> O=C(CCSc1ccccc1)NNC(=O)c1ccccc1F
  A: 6 | B: · | C: · | D: 7 | E: · | F: 5%[15.4 µM] | G: 13%

> Cc1cc2c(c(=O)n1Cc1ccccc1)C1O[C@](c3ccsc3)(Cc3ccccc31)O2
  A: · | B: -7% | C: · | D: i | E: ? | F: · | G: ·

> CN1CC(=O)N(CC(=O)N2CCC(Cc3ccccc3)CC2)C1=O
  A: -5 | B: 9% | C: -2.1% | D: 12 | E: -3.8 | F: 5% | G: 8%

> CCCN(CCO)CCCc1ccccc1
  A: -1 | B: ? | C: 0.8% | D: 6 | E: -1.3 | F: -1% | G: 9%
